GIV Gai3 FP: inhibitors of GIV peptide binding to Galpha-i3, primary screen, biochemical, fluorescence polarization, FITC-GIV GBA peptide, rat Galphai3; percent of control (FP), % (test concentration not listed); 90 min; stronger effect = lower value; scaled: aluminum fluoride 0%, vehicle 100%; hit rate 0.42% among 210,000;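 active = replicate mean at 85% of control or lower, very high polarization wells dropped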;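 note: wells of about 15 µL received 100 nL stock; the first replicate is given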
Target sequence (P08753 whole entry, looked up): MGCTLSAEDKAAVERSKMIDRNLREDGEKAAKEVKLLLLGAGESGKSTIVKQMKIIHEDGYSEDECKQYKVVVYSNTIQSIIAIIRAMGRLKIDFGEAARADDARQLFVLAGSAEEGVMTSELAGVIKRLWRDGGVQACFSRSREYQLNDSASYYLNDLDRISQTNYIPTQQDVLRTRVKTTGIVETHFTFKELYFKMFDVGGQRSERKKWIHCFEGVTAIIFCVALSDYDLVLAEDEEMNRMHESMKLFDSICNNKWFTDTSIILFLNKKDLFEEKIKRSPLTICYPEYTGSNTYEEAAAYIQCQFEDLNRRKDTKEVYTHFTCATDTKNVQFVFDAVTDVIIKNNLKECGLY
HCMV NEC inh: inhibitors of HCMV UL50-UL53 interaction, biochemical, HTRF; normalized percent inhibition; hit rate 0.15% among 190,000; inhibition, % (concentration not given with the values);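 active = both replicates at 50% or more, plus weaker picks with an unusually low signal ratio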;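 note: stock transfer was 100 nL into about 20 µL; 0% = negative control wells and 100% = wells with untagged competitor protein; inactives centre near -12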
Sa growth 42C: S. aureus growth inhibition at 42 and 30 °C, primary screen, LtaS inhibitor project, RN4220, two temperatures. OD600, 20 h, 42 °C; stronger effect = lower value. relative growth, % (test concentration not listed). hit rate 0.53% among 170,000. AID 720641, 2013;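 active = growth at 42 °C up to 50% and 20 or more points under that at 30 °C, or under 10% at both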;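 note: 300 nL library stock went into each well; scaled to the means of positive and negative controls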
Sa growth 42C second temp: recorded beside Sa growth 42C, whose call it bears; relative growth, %; measured here: growth at 30 °C;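 optical density after 20 h as mean of two plates; 100% = untreated growth and lower means inhibition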
Active calls of the source: *; / = no result given. Hits appear at their usual frequency; any-hit rate near 0.82%.

Labels used below: A = GIV Gai3 FP; B = HCMV NEC inh; C = Sa growth 42C; D = Sa growth 42C second temp
1	Cc1ccc(-c2nn(C(C)C(=O)Nc3c(C)cccc3C)c(=O)c3c2CCCC3)cc1 (configuration not stated)
  A: 105; B: 19; C: /; D: /
2	COC(=O)c1c(C)[nH]c(C(=O)N2CCC(CC(=O)N3CCN(c4cccc(C)c4)C(C)C3)CC2)c1C (configuration not stated)
  A: 105; B: -16; C: /; D: /
3	CCOc1cc(C=C2C(=O)NC(=S)NC2=O)cc(Cl)c1OCCOc1ccc(C)cc1
  A: 110; B: -12; C: /; D: /
4	CC(=O)NC1C(=O)N(C(C)C)c2ccccc21 (configuration not stated)
  A: 105; B: 13; C: 96; D: 96
5	COc1ccc(-c2cn3c(n2)sc2cc(C(=O)Nc4cccc(SC)c4)ccc23)cc1
  A: 111; B: /; C: 86; D: 96
6	O=C1C(=O)N2c3ccccc3OC(=O)C2(O)/C1=C(\O)c1ccccc1 (configuration not stated)
  A: /; B: -20; C: 101; D: 85
7	O=C(O)CNc1ccc2nncn2n1
  A: 102; B: -2; C: 111; D: 91
8	CCc1ccc2oc(-c3cccc(NC(=O)c4cc5ccccc5o4)c3)nc2c1
  A: 105; B: -45; C: 105; D: 90
9	CC1CCN(C(C(=O)O)c2ccccc2)CC1 (configuration not stated)
  A: 107; B: 13; C: 99; D: 104
10	CCc1cc(=O)[nH]c(Nc2ccc(OC)c(Cl)c2)n1
  A: 107; B: 17; C: /; D: /
11	Cc1ccc(CNC(=O)c2cc3oc4ccccc4c3n2C)cc1
  A: 106; B: -2; C: 118; D: 98
12	CNC(=S)N(Cc1ccc(OC)cc1OC)c1ccc(I)cc1
  A: /; B: 0; C: 79; D: 90
13	Cc1nc(Oc2ccc3c(C)cc(=O)oc3c2)c2c3c(sc2n1)CCC3
  A: 121; B: /; C: 111; D: 92
14	C=C(C)Cn1c(=S)[nH]c2c(c1=O)C(C)(C)Cc1ccccc1-2
  A: 99; B: -21; C: 100; D: 96
15	Cc1ccc(S(=O)(=O)N(C)CC(=O)NN)cc1
  A: /; B: -10; C: 89; D: 92
16	CCCS(=O)(=O)c1nc(S(=O)(=O)c2ccc(C)cc2)c(NCc2ccccc2)s1
  A: 102; B: 6; C: 114; D: 90
17	COc1ccccc1C(=O)NC1(C(F)(F)F)C(=O)Nc2c1c(=O)[nH]c(=O)n2-c1ccccc1 (configuration not stated)
  A: 100; B: -18; C: 108; D: 92
18	COC(=O)c1cc(-c2ccccc2)oc1CN
  A: 99; B: -4; C: 120; D: 71
19	O=C(O)c1cnc(N2CCOCC2)c(NS(=O)(=O)c2ccccc2)c1
  A: 49*; B: -29; C: /; D: /
20	CN(Cc1ccccc1)Cn1ncn(C)c1=S
  A: /; B: -66; C: 106; D: 96
21	CCOC(=O)N1CCC(N/C=C(\C#N)S(=O)(=O)C(C)C)CC1
  A: 105; B: -16; C: 110; D: 89
22	CCOC(=O)Cn1c(=O)n(CC2CCCO2)c2nc(-c3ccccc3Cl)nc(C(N)=O)c21 (configuration not stated)
  A: 101; B: /; C: 90; D: 89
23	Cc1nc2nc3c(c(NCCC4=CCCCC4)n2n1)CCCC3
  A: 105; B: -4; C: /; D: /

Limited to HCMV NEC inh, GIV Gai3 FP and Sa growth 42C second temp, for some of the entries so far:
nr	SMILES	HCMV NEC inh	GIV Gai3 FP	Sa growth 42C second temp
13	Cc1nc(Oc2ccc3c(C)cc(=O)oc3c2)c2c3c(sc2n1)CCC3	/	121	92
14	C=C(C)Cn1c(=S)[nH]c2c(c1=O)C(C)(C)Cc1ccccc1-2	-21	99	96
15	Cc1ccc(S(=O)(=O)N(C)CC(=O)NN)cc1	-10	/	92
16	CCCS(=O)(=O)c1nc(S(=O)(=O)c2ccc(C)cc2)c(NCc2ccccc2)s1	6	102	90
17	COc1ccccc1C(=O)NC1(C(F)(F)F)C(=O)Nc2c1c(=O)[nH]c(=O)n2-c1ccccc1 (configuration not stated)	-18	100	92

Record cards, as listed above:
Entry for O=C1C(=O)N2c3ccccc3OC(=O)C2(O)/C1=C(\O)c1ccccc1 (configuration not stated) = GIV Gai3 FP = /; HCMV NEC inh = -20; Sa growth 42C = 101; Sa growth 42C second temp = 85
Entry for Cc1nc2nc3c(c(NCCC4=CCCCC4)n2n1)CCCC3 = GIV Gai3 FP = 105; HCMV NEC inh = -4; Sa growth 42C = /; Sa growth 42C second temp = /

Source: PubChem
